Sa RN4220 lethal – S. aureus RN4220 growth inhibition | OD600, 16 h | inhibition, % (no concentration beside the values) | 0.33% of 330,000 active;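 active means z-score of -3 or lower and OD600 up to 0.18 on both plates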;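 further: plate controls were untreated cells for no effect and reference antibiotic for full effect; stock transfer was 100 nL into about 80 µL; one replicate is shown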
Bead autofluor – compound fluorescence in toxin protease inhibitor counterscreen. compound autofluorescence counterscreen, microsphere flow cytometry; stronger effect = higher value. fluorescence intensity (test concentration not listed). 3.1% of 360,000 active. AID 624483;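 active means at least 3 SD above the mean of all compounds, about 16000 in these data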;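 further: 100 nL of 1 mM stock went into each well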
Mtb hypoxia inh – Mtb hypoxia fluorescent reporter inhibition | M. tuberculosis hypoxia-regulated fluorescent reporter, fluorescence | fluorescence inhibition, % (concentration not given with the values) | 0.1% of 300,000 active | AID 1159583;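 active means 35 to 45% if threefold the growth effect, above 45% if 1.5-fold the growth effect; inactive means the rest, general growth blockers included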;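 further: wells of about 50 µL received 100 nL stock; 0% = vehicle wells and 100% = reference inhibitor wells; whole bacteria with a GFP reporter of the hypoxia response; strong numbers were not always called active; many hits fall short of the cut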
ugtP null kill – kills S. aureus RN4220 lacking UgtP. 0.54% of 330,000 active. growth inhibition, % (test concentration not listed). S. aureus RN4220 ugtP deletion, OD600 growth, 16 h; some inactives read as strong as hits. AID 1259309;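 active means z-score under -3 and OD600 up to 0.15 on both plates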;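 further: plate controls were untreated wells for no effect and antibiotic for full effect; wells of about 80 µL received 100 nL stock; the first replicate is given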
PrP 5UTR inh – inhibition of PrP 5' UTR reporter expression; cell-based PrP 5' UTR mRNA reporter, plate reader; inhibition, % (concentration not given with the values); 0.35% of 340,000 active; AID 488862;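 active means every replicate at 50% or more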;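 further: 0 = median of the neutral control wells; tested in H4 reporter cells; numbers are from one replicate; inactives centre near -14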
BJeLR lethal – kills HRASV12-expressing BJeLR cells; AID 1554; inhibition, % (concentration not given with the values); 0.17% of 300,000 active; BJeLR (HRASV12) viability, CellTiter-Glo ATP luminescence, 48 h; reference of the scale not given here;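 active means replicate mean above 50%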;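 further: 50 nL library stock added to about 25 µL; numbers are from one replicate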
Mtb hypoxia inh growth – also measured in Mtb hypoxia inh; calls as there; growth inhibition, %; measured here: M. tuberculosis growth (absorbance);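 0% = vehicle and 100% = reference antibiotic; read after six days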
An asterisk follows results filed as active; / = no result given. Not a hit list (roughly 4% active in at least one column).

No.	structure	Sa RN4220 lethal	Bead autofluor	Mtb hypoxia inh	Mtb hypoxia inh growth
1	CN(C)CCCn1c(NCc2ccc3c(c2)OCO3)nc2ccccc21	-4.3	11010	0	7
2	Cc1ccc2cc(/C=N/NC(=O)c3ccc(F)cc3)c(Cl)nc2c1	/	4013	/	/
3	CC(O)Cc1cn([C@@H](CCCCNC(=O)OC(C)(C)C)C(=O)N2CCN(C(=O)OC(C)(C)C)CC2)nn1 (stereo partly specified)	/	3284	/	/
4	CC(C)NC1CCC(Nc2ccnc3cc(Cl)ccc23)CC1 (stereo unspecified)	3.2	3806	17	10
5	O=C(Nc1cccc(S(=O)(=O)N2CCCCC2)c1)[C@@H]1CCCN1S(=O)(=O)c1ccccc1C(F)(F)F	-0.2	3843	0	13
6	COc1ccc(N2CCN(Cc3nnnn3C3CCCCC3)CC2)cc1	4.9	4738	-2	-4
7	CCc1cccc(C)c1NC(=O)CCCn1c(=O)c2cccn2c2cccnc21	7.4	5238	-6	-4
8	COc1cc(C(=O)N2CCN(C(=O)c3ccco3)CC2)c([N+](=O)[O-])cc1OC	3.5	4634	13	-3
9	O=C(c1cc2cc(Cl)ccc2o1)N1CCCC1	0.0	4015	-2	0
10	CC(C)N1C(=O)CCC1C(=O)O (stereo unspecified)	5.0	7808	6	3
11	Cn1c(CCNC(=O)C(C)(C)C)nc2ccccc21	3.2	3818	4	11
12	CCCCNC(=O)C1CC=CC2CCN(Cc3ccc(Cl)c(Cl)c3)C(=O)C21 (stereo unspecified)	-0.6	/	-9	-15
13	CC(C)CCc1noc(CN(C)CCC2CCOCC2)n1	2.1	3324	21	4
14	O=C(CSc1nnc(CNC(=O)c2ccco2)o1)Nc1cccc(Cl)c1	4.1	5709	4	4
15	Cc1cc(NC(=O)NCc2ccco2)ccc1NC(=O)NCc1ccco1	0.4	3892	24	12

No.	ugtP null kill	PrP 5UTR inh	BJeLR lethal
1	1	-6	-3
2	/	-18	6
3	/	-9	-2
4	0	-10	/
5	-11	-9	/
6	2	-7	-10
7	8	-12	1
8	1	-4	1
9	0	-40	-5
10	6	-4	2
11	1	-10	-2
12	-4	/	/
13	2	-11	-2
14	5	2	1
15	2	-29	/

Among those listed so far, these have sulfur:
No.	structure	Sa RN4220 lethal	Bead autofluor	Mtb hypoxia inh	Mtb hypoxia inh growth
5	O=C(Nc1cccc(S(=O)(=O)N2CCCCC2)c1)[C@@H]1CCCN1S(=O)(=O)c1ccccc1C(F)(F)F	-0.2	3843	0	13
14	O=C(CSc1nnc(CNC(=O)c2ccco2)o1)Nc1cccc(Cl)c1	4.1	5709	4	4

No.	ugtP null kill	PrP 5UTR inh	BJeLR lethal
5	-11	-9	/
14	5	2	1

The list goes on:
No.	structure	Sa RN4220 lethal	Bead autofluor	Mtb hypoxia inh	Mtb hypoxia inh growth
16	CC1=C[C@H](C)[C@H](c2c(F)cccc2Cl)CC1=O	/	3720	/	/
17	N#CCCNN=C(Cc1nc2ccccc2[nH]1)c1ccccc1	-1.3	/	-4	-8
18	COc1ccc(OC)c(NC(=O)CSc2nnnn2-c2ccccc2F)c1	2.5	/	7	14
19	Cc1ccc(-c2nn(-c3ccccc3)cc2C(N)=O)o1	6.4	5311	0	4
20	Cc1ccc(-n2nc3c(=O)n(C(C)C(=O)NCc4ccc(Cl)cc4)nc(C)c3c2C)cc1 (stereo unspecified)	1.8	6487	20	9
21	N#CC1=C(N)Oc2cc(N)ccc2C1c1ccccc1Cl (stereo unspecified)	3.3	3465	3	-2
22	Cc1ccc(-c2nn(Cc3ccccc3)cc2C(=O)NCC2CCCO2)cc1 (stereo unspecified)	1.6	6084	6	-5
23	CCCCc1nnc2c(N(C)S(=O)(=O)c3ccccc3)nc3ccccc3n12	1.8	4582	14	8
24	Cc1c(C(=O)N2CC3(CC(c4cccc(NC(=O)[C@H]5CCC(=O)N5)c4)=NO3)C[C@@H]2C(N)=O)cc([N+](=O)[O-])cc1[N+](=O)[O-] (stereo partly specified)	/	3486	/	/
25	COc1ccc(CCNC(=O)c2cc3c(=O)n4cccc(C)c4nc3n(Cc3ccco3)c2=N)cc1OC	/	3957	/	/
26	CSc1ncc(CN2CCN(CC=C(C)C)C(CCO)C2)cn1 (stereo unspecified)	2.2	2838	-2	-3
27	O=C(COC(=O)CCC(=O)c1cccs1)Nc1ncc(Cl)cc1Cl	1.4	2392	-2	-4
28	COc1ccc(C(c2nnnn2C(C)(C)C)N2CCN(c3nc4ccccc4s3)CC2)cc1 (stereo unspecified)	1.4	2728	/	/
29	Cc1c(N=C/C=C/c2ccccc2)cnn1C	2.3	2477	/	/
30	C=CCSC1=NNC(c2ccc(C(C)(C)C)cc2)=NN1	3.5	5827	-2	3

No.	ugtP null kill	PrP 5UTR inh	BJeLR lethal
16	/	-5	5
17	-13	/	/
18	1	9	3
19	-7	-24	4
20	-1	4	-11
21	-15	-1	3
22	3	-13	/
23	3	-17	11
24	/	-9	-1
25	/	0	6
26	14	-19	-7
27	-1	7	-18
28	-2	-16	-1
29	-7	-27	6
30	12	-86	0

Next part:
No.	structure	Sa RN4220 lethal	Bead autofluor	Mtb hypoxia inh	Mtb hypoxia inh growth
31	O=C(O)C1CCC(=O)N1Cc1ccc(F)cc1 (stereo unspecified)	4.5	5756	8	0
32	O=S(=O)(NC1=NCCCCC1)c1ccc(F)cc1	2.6	4625	12	-3
33	CCN(CC)S(=O)(=O)c1ccc(OC(C)C)c(NC(=O)C2=COCCO2)c1	/	5698	/	/
34	Cc1ccc(-c2nn(C)c(=O)c3ccccc23)cc1CNC(=O)/C=C/c1ccccc1	-1.8	7158	8	8
35	Cn1c(SCC#N)nnc1-c1ccc2c(c1)OCO2	5.9	9562	4	11
36	COc1cc(S(=O)(=O)NCc2ccccc2)ccc1F	6.0	2456	/	/
37	CCOc1ccccc1NC(=O)C(NCCN(C)C)c1ccccc1 (stereo unspecified)	3.9	4757	5	9

No.	ugtP null kill	PrP 5UTR inh	BJeLR lethal
31	12	-19	3
32	1	-15	-8
33	/	3	0
34	1	37	-21
35	3	-38	-6
36	6	-16	1
37	12	-30	-4

Part of the list above, limited to Mtb hypoxia inh growth and PrP 5UTR inh.
| cpd | Compound | Mtb hypoxia inh growth | PrP 5UTR inh |
| --- | --- | --- | --- |
| 37 | CCOc1ccccc1NC(=O)C(NCCN(C)C)c1ccccc1 (stereo unspecified) | 9 | -30 |
| 31 | O=C(O)C1CCC(=O)N1Cc1ccc(F)cc1 (stereo unspecified) | 0 | -19 |
| 35 | Cn1c(SCC#N)nnc1-c1ccc2c(c1)OCO2 | 11 | -38 |
| 36 | COc1cc(S(=O)(=O)NCc2ccccc2)ccc1F | / | -16 |
| 34 | Cc1ccc(-c2nn(C)c(=O)c3ccccc23)cc1CNC(=O)/C=C/c1ccccc1 | 8 | 37 |
| 33 | CCN(CC)S(=O)(=O)c1ccc(OC(C)C)c(NC(=O)C2=COCCO2)c1 | / | 3 |
